BJeLR viab HTS: BJeLR cell viability reduction | BJeLR fibroblasts viability, CellTiterGlo ATP luminescence, 48 h; HRASV12, hTERT and SV40 LT/ST transformed | viability loss activity score, % (concentration not given with the values) | 0.64% of 30,000 active; in the data active means viability loss activity score above about 50%; about a fifth of its hits are not listed in these tables;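 further: higher score means fewer live cells and less ATP luminescence; stock transfer was 50 or 100 nL into about 30 µL; 0% = vehicle wells and 100% = a reference killing control; one replicate is shown; the record names a cut of 85%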
A1 inh: blocks A1 activity; MEF A1-2A-BIM cells, caspase-Glo luminescence, 3 h; percent of clofoctol signal, DMSO as zero; caspase activation, % (test concentration not listed); 0.51% of 21,000 active; AID 2241;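 active means most replicate scores above 10, or exactly half above 10 with mean activity above 10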;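 further: effector caspase 3 and 7 activity cleaving a DEVD luciferin substrate; 50 nL library stock added to about 30 µL; numbers are from one replicate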
* marks the source's active call; other numbers are inactive results; nt = not tested or not shown. Only part of the results is shown; count on the stated rates, not on these rows.

SMILES	BJeLR viab HTS	A1 inh
CNC[C@@H]1Oc2ccc(NC(=O)Nc3ccc(F)cc3)cc2C(=O)N([C@H](C)CO)C[C@H]1C	-0.6	0.0
CCCNC(=O)c1cc2c(=O)n3cccc(C)c3nc2s1	-1.6	nt
COc1ccc(NC(=O)C2CC(C)=C(C)CC2C(=O)O)c(N2CCOCC2)n1 (centres undefined)	7.9	0.1
C[C@H]1CN([C@@H](C)CO)C(=O)c2cc(N(C)C)ccc2O[C@@H]1CN(C)C(=O)Nc1ccc(C(F)(F)F)cc1	1.6	0.1
Cc1ccc(S(=O)(=O)N(C)C[C@H]2Oc3ccc(NS(=O)(=O)c4ccc(F)cc4)cc3C(=O)N([C@@H](C)CO)C[C@H]2C)cc1	0.1	-1.1
O=C(NCc1ccccc1)c1cnn2c(C(F)(F)F)cc(-c3ccco3)nc12	0.7	-0.9
C[C@H]1CN([C@@H](C)CO)C(=O)c2cccc(NS(=O)(=O)c3ccc(F)cc3)c2O[C@H]1CN(C)S(C)(=O)=O	-0.3	nt
COc1ccc(CCn2c(C)nc(=O)c(-c3ccccc3)c2C)cc1OC	-4.7	0.6
Cc1noc(C)c1S(=O)(=O)N(C)C[C@H]1Oc2c(NC(=O)c3nc4ccccc4s3)cccc2C(=O)N([C@H](C)CO)C[C@H]1C	-4.3	nt
COc1ccc(NC(=O)Nc2cccc3c2O[C@@H](CN(C)S(=O)(=O)c2ccccc2)[C@H](C)CN([C@@H](C)CO)C3=O)cc1	-6.2	nt
COc1ccc(NC(=S)SC)cc1OC	0.1	-0.2
O=C(CCc1nc2sc3c(c2c(=O)[nH]1)CCCC3)NC1CCCC1	2.0	nt
O=c1[nH]c(=S)c2c(n1Cc1ccco1)CCC2	-4.7	0.2
C[C@H]1CN([C@@H](C)CO)C(=O)c2cccc(NC(=O)NC3CCCCC3)c2O[C@H]1CN(C)C(=O)NC1CCCCC1	-5.6	nt
CC(C)NC(=O)N(C)C[C@@H]1Oc2ccc(NC(=O)Cc3ccccc3)cc2C(=O)N([C@H](C)CO)C[C@H]1C	7.1	-0.6
C[C@@H]1CN([C@@H](C)CO)C(=O)c2cc(NC(=O)Cc3ccccc3)ccc2O[C@@H]1CN(C)C(=O)Nc1ccc2c(c1)OCO2	-1.6	-0.1
C[C@H]1CN([C@@H](C)CO)C(=O)c2cccc(NC(=O)c3nc4ccccc4s3)c2O[C@@H]1CN(C)S(C)(=O)=O	6.2	nt
COc1ccc(-c2cc(=O)c3c(OC)c(OC)c(OC)c(OC)c3o2)cc1OC	-4.5	1.0
COc1ccc(S(=O)(=O)Nc2ccc3c(c2)C(=O)N([C@H](C)CO)C[C@@H](C)[C@@H](CN(C)S(=O)(=O)c2ccc(F)cc2)O3)cc1	2.2	0.3
Cc1noc(C)c1NC(=O)Nc1ccc2c(c1)C(=O)N([C@H](C)CO)C[C@H](C)[C@@H](CN(C)S(=O)(=O)c1cccs1)O2	-4.0	-0.3
COc1ccc2[nH]c3c(=O)n(Cc4ccc(C(=O)NCc5cccnc5)cc4)c(=S)[nH]c3c2c1	2.7	-0.1
O=C(Cc1cccc2ccccc12)Nc1ccc(S(=O)(=O)N2CCCC2)cc1	3.3	0.0
COc1ccccc1OCc1nc(C#N)c(N(C)C)o1	-1.5	-0.8
C[C@@H]1CN([C@H](C)CO)C(=O)c2cc(NC(=O)c3ccncc3)ccc2O[C@@H]1CN(C)C(=O)Nc1ccccc1	-4.5	-0.3
CCC1CCc2nc3sc(C(=O)NCCc4ccc(OC)cc4)c(N)c3cc2C1 (centres undefined)	1.1	-0.4
COc1ccc(CCN(C)CCc2ccc(OC)c(OC)c2)cc1OC	0.9	1.1
CC(C)NC(=O)Nc1cccc2c1O[C@@H](CN(C)Cc1ccc3c(c1)OCO3)[C@H](C)CN([C@@H](C)CO)C2=O	-6.6	nt
CCOc1ccccc1NC(=S)NCC(C)CSc1ccc(C)cc1 (centres undefined)	-0.2	0.2
C=C1[C@H](O)C[C@H]2[C@@H](/C=C(\C)C(=O)[C@@]3(O)C[C@H](C)[C@H](O)[C@@H]3[C@H]1O)C2(C)C	2.9	0.0
C[C@@H]1CN([C@H](C)CO)C(=O)c2cc(NC(=O)C3CCCCC3)ccc2O[C@@H]1CN(C)S(=O)(=O)c1cn(C)cn1	1.6	0.4
CNC[C@@H]1Oc2ccc(NS(=O)(=O)c3ccc(OC)cc3)cc2C(=O)N([C@@H](C)CO)C[C@H]1C	2.9	1.6
COc1ccc(NC(=O)N(C)C[C@H]2Oc3c(NC(=O)C4CCOCC4)cccc3C(=O)N([C@H](C)CO)C[C@H]2C)cc1	3.2	nt
CCOC(=O)Cc1n[nH]c(CC(=O)OCC)n1	5.3	-0.3
CCCCN(CC)C(=O)c1cc2cc3ccc(C)cc3nc2o1	6.3	nt
CC(C)NC(=O)N(C)C[C@H]1Oc2ccc(NC(=O)NC3CCCCC3)cc2C(=O)N([C@@H](C)CO)C[C@@H]1C	4.0	-0.1
C[C@@H]1CN([C@H](C)CO)C(=O)c2cccc(NS(=O)(=O)c3ccc(Cl)cc3)c2O[C@H]1CN(C)CC1CCCCC1	-2.8	nt
C[C@@H]1CN([C@H](C)CO)C(=O)c2cc(NC(=O)Nc3cccc4ccccc34)ccc2O[C@H]1CN(C)S(C)(=O)=O	-0.6	0.8
Cn1c(=O)nc2n(-c3ccc(Cl)c(Cl)c3)c3ccccc3cc-2c1=O	-2.3	nt
O=C(NCCCCCCNC(=O)ON=C1CCCCC1)ON=C1CCCCC1	-3.1	-0.8
C[C@H]1CN([C@@H](C)CO)C(=O)c2cc(NS(=O)(=O)c3ccc(Cl)cc3)ccc2O[C@@H]1CN(C)C(=O)Nc1ccc(F)cc1	-7.1	0.3
CCOC(=O)c1c(C)oc2ccc(OCC)cc12	-1.1	-0.5
CCn1c(-c2ccco2)nc2ccccc21	-1.4	-4.0
C[C@@H]1CN([C@H](C)CO)C(=O)c2cccc(NC(=O)NC3CCCCC3)c2O[C@H]1CN(C)S(=O)(=O)c1ccc(F)cc1	0.3	nt
C[C@@H]1CN([C@@H](C)CO)C(=O)c2cc(NC(=O)Nc3ccc(C(F)(F)F)cc3)ccc2O[C@H]1CN(C)C(=O)Nc1ccc(F)cc1	1.1	1.0
CNC[C@H]1Oc2c(N)cccc2C(=O)N([C@H](C)CO)C[C@@H]1C	-2.2	nt

One compound at a time, as listed above. Order of screens: BJeLR viab HTS, A1 inh
CCC1CCc2nc3sc(C(=O)NCCc4ccc(OC)cc4)c(N)c3cc2C1 (centres undefined) across the screens: 1.1, -0.4
O=C(Cc1cccc2ccccc12)Nc1ccc(S(=O)(=O)N2CCCC2)cc1 across the screens: 3.3, 0.0
C=C1[C@H](O)C[C@H]2[C@@H](/C=C(\C)C(=O)[C@@]3(O)C[C@H](C)[C@H](O)[C@@H]3[C@H]1O)C2(C)C across the screens: 2.9, 0.0
CC(C)NC(=O)N(C)C[C@@H]1Oc2ccc(NC(=O)Cc3ccccc3)cc2C(=O)N([C@H](C)CO)C[C@H]1C across the screens: 7.1, -0.6
COc1ccc(NC(=S)SC)cc1OC across the screens: 0.1, -0.2

The listing continues.
SMILES	BJeLR viab HTS	A1 inh
CCC(Sc1nc2cc3c(cc2c(=O)n1Cc1ccco1)OCO3)C(=O)Nc1ccccc1OC (centres undefined)	7.3	-0.6
CCC(Sc1nnnn1-c1ccccc1)C(=O)N1c2ccccc2Sc2ccccc21 (centres undefined)	-4.2	-0.5
COc1ccc(N2C(=O)CCC(C(=O)NCC3CCCO3)C2c2ccc(F)cc2)cc1 (centres undefined)	-5.8	nt
COc1ccc(NC(=O)N(C)C[C@@H]2Oc3c(NC(=O)c4cc(C)nn4C)cccc3C(=O)N([C@H](C)CO)C[C@H]2C)cc1	5.3	nt
O=c1[nH]c2ccc(Cl)cc2c(-c2ccccc2)c1SC(=S)N1CCOCC1	-2.5	nt
Cc1ccc(NC(=O)c2ccc3c(=O)n(Cc4ccco4)c(=S)[nH]c3c2)cc1Cl	4.5	1.8
C[C@H]1CN([C@@H](C)CO)C(=O)c2cccc(NC(=O)C3CCCCC3)c2O[C@@H]1CN(C)C(=O)Nc1cccc2ccccc12	0.0	nt
CCOC(=O)CN1C(=O)S/C(=C\c2ccc(C(=O)O)cc2)C1=O	-3.7	-0.8
Cc1ccc(SCC(=O)N[C@@H]2C[C@H]3CC[C@@H]2C3)cc1	2.2	-1.4
COC(=O)c1ccccc1N=CCC(=O)c1ccc(Br)cc1	4.5	-6.0
C[C@@H]1CN([C@H](C)CO)C(=O)c2cc(NC(=O)Cn3cnnn3)ccc2O[C@@H]1CN(C)S(C)(=O)=O	-0.8	0.3
COc1ccc(NC(=O)N(C)C[C@@H]2Oc3c(NS(=O)(=O)c4c(C)noc4C)cccc3C(=O)N([C@@H](C)CO)C[C@@H]2C)cc1	-1.3	nt
CCSc1nnc(-c2ccccc2NC(=O)CC)c(=O)[nH]1	-2.6	-0.1
COc1ccccc1N1CCN(S(=O)(=O)Cc2ccccc2)CC1	3.2	-0.4
CC(C)(C)OC(=O)N1CCC(CNS(=O)(=O)c2cccc3cccnc23)CC1	-5.5	nt
C[C@@H]1CN([C@H](C)CO)C(=O)c2cc(N(C)C)ccc2O[C@@H]1CN(C)C	1.3	0.9
C[C@H](CO)N1C[C@H](C)[C@@H](CN(C)Cc2ccc(C(F)(F)F)cc2)Oc2c(NS(=O)(=O)c3ccc(Cl)cc3)cccc2C1=O	-1.8	nt
CC(C)CC(C(=O)Nc1cccc(C(F)(F)F)c1)N1C(=O)c2ccccc2C1=O (centres undefined)	0.1	nt
C[C@@H]1CN([C@@H](C)CO)C(=O)c2cccc(NC(=O)C3CCOCC3)c2O[C@@H]1CN(C)Cc1ccc(Cl)c(Cl)c1	0.8	nt
C[C@H]1CN([C@@H](C)CO)C(=O)c2cccc(NC(=O)c3ccc(-c4nccs4)cc3)c2O[C@H]1CN(C)CC1CC1	2.8	nt
CCCN1CC=C2C(C#N)(C#N)C(N)=C(C#N)C(c3ccc(OCC(N)=O)cc3)C2(C)C1 (centres undefined)	5.4	-0.5
CCN(CC)S(=O)(=O)c1ccc(Cc2ccc(S(=O)(=O)N(CC)CC)cc2)cc1	12	-0.8
COc1ccc(C(O)(CCc2ccccc2)C(CN2CCCCC2)c2ccccc2)cc1 (centres undefined)	5.2	0.0
COc1ccc(CN(C)C[C@H]2Oc3ccc(NC(=O)C4CC4)cc3C(=O)N([C@@H](C)CO)C[C@H]2C)cc1	-6.5	0.4
Brc1ccc2ncnc(-c3ccccc3)c2c1	2.3	1.8
COc1ccc(S(=O)(=O)N(C)C[C@@H]2Oc3c(NS(=O)(=O)c4cccs4)cccc3C(=O)N([C@@H](C)CO)C[C@@H]2C)cc1	-1.1	nt
COc1ccc(OCCC(=O)NN)cc1	-1.0	0.0
C[C@@H]1CN([C@@H](C)CO)C(=O)c2cc(NC(=O)Nc3ccc4c(c3)OCO4)ccc2O[C@H]1CN(C)S(=O)(=O)c1cn(C)cn1	-2.4	-0.3
CCOC(=O)N1CCN(C(=O)/C(=C/c2ccccc2Cl)c2ccccc2)CC1	3.8	1.2
CCOC(=O)c1cn(C(=O)CCSc2ccc(OC)cc2)nc1N	-9.4	-0.1
N#CCN(CC#N)C(=O)c1ccc(C(=O)N(CC#N)CC#N)cc1	4.0	0.0
C[C@H](CO)N1C[C@H](C)[C@@H](CN(C)Cc2ccccc2)Oc2ccc(NS(=O)(=O)c3cn(C)cn3)cc2C1=O	-1.2	0.9
COc1ccc(NC(=O)N(C)C[C@H]2Oc3c(NS(C)(=O)=O)cccc3C(=O)N([C@H](C)CO)C[C@@H]2C)cc1	-12	nt
C[C@H](CO)N1C[C@H](C)[C@@H](CN(C)Cc2ccc(-c3ccccc3)cc2)Oc2c(NC(=O)Nc3ccc4c(c3)OCO4)cccc2C1=O	-5.2	nt
Cn1c(CN2CCCCC2)c(C#N)c2ccccc21	-2.3	-0.1
Cc1ccc(OC(C)(C)C(=O)Nc2ccc(Oc3ccc(F)cc3F)nc2)c2c1CCC2	2.7	0.8
CCOc1ccccc1/C=N\n1cnnc1	-1.9	0.7
Cc1ccc(-n2c(=O)c3ccc(C(=O)NCc4ccco4)cc3n(Cc3ccccc3F)c2=O)cc1	17	nt
O/N=C1/CC(O)(C(F)(F)F)Oc2ccccc21 (centres undefined)	-7.3	0.0
Cc1nc2ccccn2c1-c1ccnn1C(=O)c1ccc(Cl)cc1	1.5	-1.5
O=C(CNC(=S)N(Cc1cccs1)C1CCCC1)NC1CCCc2ccccc21 (centres undefined)	-1.8	0.0
Cc1noc(C)c1NC(=O)N(C)C[C@H]1Oc2ccc(NS(=O)(=O)c3cn(C)cn3)cc2C(=O)N([C@@H](C)CO)C[C@H]1C	0.7	1.0
CC(C)(C)c1ccc(-c2n[nH]c(S(C)(=O)=O)c2C#N)cc1	5.2	-2.3
Cc1ccc(S(=O)(=O)N(C)C[C@@H]2Oc3c(NS(=O)(=O)c4ccc(F)cc4)cccc3C(=O)N([C@H](C)CO)C[C@@H]2C)cc1	0.5	nt
CCN(CC)C(=O)Cc1c(C(=O)O)[nH]c2ccccc12	1.9	nt
COc1ccc(Cn2c(C)cc(O)cc2=O)cc1OC	0.6	-0.5
Cc1cccc(-c2nc3ccccc3c(=O)n2OC(=O)c2ccc(C)c(C)c2)c1	0.1	-0.3
C[C@@H]1CN([C@@H](C)CO)C(=O)c2cc(NS(C)(=O)=O)ccc2O[C@H]1CN(C)Cc1ccccc1	-1.2	0.3

Molecules listed so far with a tert-butyl group (two):
SMILES	BJeLR viab HTS	A1 inh
CC(C)(C)OC(=O)N1CCC(CNS(=O)(=O)c2cccc3cccnc23)CC1	-5.5	nt
CC(C)(C)c1ccc(-c2n[nH]c(S(C)(=O)=O)c2C#N)cc1	5.2	-2.3

Screening data (PubChem BioAssay)
